High-throughput results: PubChem BioAssay, Fisher Drug Discovery Resource Center
NPYLR7 agonist = activates Aedes aegypti NPYLR7 receptor | HEK293T NPYLR7/Galpha15, GCaMP6s calcium fluorescence | activation, % at 10 µM | hit rate 0.15% among 270,000 | AID 1259423; in the data active = activation above about 40%;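 also: 0% = vehicle and 100% = reference agonist at the receptor; some compounds past the cut are filed as inactive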
NPYLR7 agonist max-min = also measured in NPYLR7 agonist; calls as there; activation, %; measured here: Max-Min RFU normalised activation; some inactives read as strong as hits;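 span of the calcium signal over five minutes; 0% = vehicle and 100% = native peptide agonist; compound fluorescence can raise it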
The depositor's hits bear a star; & = joins results of further samples. An excerpt (hit frequency here may not be typical).

A first look:
SMILES	NPYLR7 agonist	NPYLR7 agonist max-min
CC(C)COCC(O)CN(Cc1nc2scc(-c3ccccc3Cl)c2c(=O)[nH]1)Cc1ccco1 (configuration not stated)	-3	4
O=C(Cc1ccc2c(c1)OCO2)N1CCC(n2c(-c3ccccc3)nc3ccc(F)cc32)CC1	5	14

All compounds of this part, from the start:
SMILES	NPYLR7 agonist	NPYLR7 agonist max-min
CC(C)COCC(O)CN(Cc1nc2scc(-c3ccccc3Cl)c2c(=O)[nH]1)Cc1ccco1 (configuration not stated)	-3	4
O=C(Cc1ccc2c(c1)OCO2)N1CCC(n2c(-c3ccccc3)nc3ccc(F)cc32)CC1	5	14
Cc1cccc(-n2nnnc2SCC(=O)N2CCCCC2C)c1C (configuration not stated)	-10	-11
CCCc1[nH]n(-c2ccc(Cl)c(Cl)c2)c(=O)c1C1=C([n+]2ccc(C)cc2)C(=O)N(C(C)C)C1=O	12	13
NS(=O)(=O)c1ccc(NC(=O)CSc2nnc3scc(-c4ccccc4)n23)cc1	6	10
COc1cc(/C=C/C(=O)N2CC(Oc3ccccc3)C2)cc(OC)c1	3	13
CC1c2cc3c(cc2C2(CCCC2)CN1CC(O)COc1ccc(C#N)cc1)OCCO3 (configuration not stated)	-1	-3
CCCCn1c(C)c(C)[nH]c1=S	1	0
Cc1nccc(-c2cccc(-n3cnnc3)c2)n1	2	2
CCN(CC)C(Cn1c(=S)[nH]c2ccccc2c1=O)c1cccc(OC)c1 (configuration not stated)	2	1
CC(=O)NCc1ccc(S(=O)(=O)N2CC(C)CC(C)C2)s1 (configuration not stated)	1	-1
Cc1cccn2c(NC(C)(C)C)c(-c3ccccc3F)nc12	-11&4	-10&6
CCCc1noc(-c2ccc(-n3ncc(C(=O)N4CCSCC4)c3C)nc2)n1	-8	-10
COC(=O)c1ccc(-c2nc(CN3CCCC3c3nonc3C)c(C)o2)cc1 (configuration not stated)	0	-1
CC(C)Oc1cccc(C(C)NC(=O)c2ccc(=O)n(-c3ccc(F)cc3)n2)c1 (configuration not stated)	3	-4
CSc1nc(N2CCOCC2)c2cnn(CCNC(=O)c3cccc(F)c3)c2n1	6	5
Clc1ccc2oc(SCc3csc(Cc4ccc(Cl)c(Cl)c4)n3)nc2c1	1	-8
CNC(=O)COc1ccccc1-c1ccc(-n2cccn2)cc1	11	11
COc1cccc(Cc2c(C)nc(C)nc2N2CCN(C(=O)c3ccc(Cl)cc3)CC2)c1	2	6
CCOC(=O)c1cnn(-c2cccc(NC(=O)C(CC(C)C)N3C(=O)C4CC=CCC4C3=O)c2)c1C (configuration not stated)	22	29
Cc1nn(CC(=O)Nc2ccc(C(F)(F)F)cn2)c(C)c1[N+](=O)[O-]	-3	-11
CC(=O)C1=C(O)CC(c2ccccc2)SC1=Nc1ccccc1 (configuration not stated)	4	7
O=C1c2ccccc2S(=O)(=O)N1Cc1ccc(Br)cc1	33	21
O=C(C1CCC1)N1CCCN(Cc2cccc(Cn3cccn3)c2)CC1	19	16
Cc1ccc([N+](=O)[O-])cc1-c1ccc(C=C2C(=O)N(c3ccccc3)C(=S)N(c3ccccc3)C2=O)o1	-2	-4
COCCn1c(N2CCC(C)CC2)nc2c1c(=O)n(C)c(=O)n2C	-7	-1
COc1cc(C(=O)NS(=O)(=O)c2ccc(C#N)cc2)ccc1C	1	-1
CC(C)c1ccccc1NC(=O)c1cc2ccccc2oc1=O	0	7
Cc1ccc(NC2SC(=O)N(c3ccc(C)cc3)C2=O)cc1 (configuration not stated)	-5	-6
CCc1nn2c(nnc3c(=O)n(-c4cccc(Cl)c4)ccc32)c1-c1ccc(OC)cc1	-1	-2
COc1cc([N+](=O)[O-])cc2sc(NC(=O)C3CCCCC3)nc12	-13	-17
Cc1csc(SCc2cc(=O)c(OC(=O)c3ccc(S(=O)(=O)N(C)C)cc3)co2)n1	-5	-6
COc1nn(Cc2ccc(Cl)c(Cl)c2)cc1[N+](=O)[O-]	0	-1
CC(C)n1cc(CN2CCN(Cc3ccccc3F)C(CCO)C2)cn1 (configuration not stated)	2	-2
CCn1cncc1S(=O)(=O)Oc1ccc(CCC(C)=O)cc1	10	7
CCC(C)N(Cc1ccc(OS(=O)(=O)c2ccc(F)cc2)cc1)C(=O)Nc1ccccc1Br (configuration not stated)	-2	3

5 records drawn at random from the list so far, as already listed:
SMILES	NPYLR7 agonist	NPYLR7 agonist max-min
CCc1nn2c(nnc3c(=O)n(-c4cccc(Cl)c4)ccc32)c1-c1ccc(OC)cc1	-1	-2
COc1nn(Cc2ccc(Cl)c(Cl)c2)cc1[N+](=O)[O-]	0	-1
COc1cc(C(=O)NS(=O)(=O)c2ccc(C#N)cc2)ccc1C	1	-1
CCn1cncc1S(=O)(=O)Oc1ccc(CCC(C)=O)cc1	10	7
COc1cc([N+](=O)[O-])cc2sc(NC(=O)C3CCCCC3)nc12	-13	-17

Following part.
SMILES	NPYLR7 agonist	NPYLR7 agonist max-min
Cc1cc(C)n(C(C)C(=O)NC2CCN(Cc3cccc(O)c3)CC2)n1 (configuration not stated)	7	0
CCOc1ccc(N2C(=S)SC3CS(=O)(=O)CC32)cc1 (configuration not stated)	1	-1
COCCN1CCCC(O)(CN2CCC(O)(Cn3ccnc3)CC2)C1=O (configuration not stated)	30	19
COCCNC(=O)CN1CN(c2ccccc2)C2(CCN(C(=O)/C=C/c3ccccc3)CC2)C1=O	-5	7
Cc1ccc(CNC(=O)C2CCCC2)s1	-4	-5
CCCCCCn1c(N2CCN(c3ccccc3)CC2)nc2c1c(=O)[nH]c(=O)n2C	4	-1
O=C(NC[C@H]1C[C@H]2C=C[C@H]1C21CC1)c1coc(COc2ccc(F)cc2)n1	15	6
CC(=O)c1cccc(N2C(=O)/C(=C/c3ccc(-c4ccc([N+](=O)[O-])cc4)o3)C=C2c2ccccc2)c1	1	11
Cc1cccc(NC2(C(F)(F)F)N=C3SCCN3C2=O)n1 (configuration not stated)	-3	-4
C=C(C)CN1CCN(c2nc3c(c(=O)[nH]c(=O)n3C)n2CCCc2ccccc2)CC1	3	24
CN(Cc1ccc2c(c1)OCO2)C(=O)c1n[nH]c2c1CCCC2	-3	-9
Cc1ccc(C)c(Cn2nc(-c3cccs3)c3sc(N4CCOCC4)nc3c2=O)c1	-1	-5
COC(=O)C1C(C(C)C)N(c2ccccc2)OC1(C)O (configuration not stated)	-1	-3
CC(=O)OCC(=O)[C@@]1(O)CCC2C3CCC4=CC(=O)CC[C@]4(C)C3[C@@H](O)C[C@@]21C (some centres not stated)	-8	-13
CSc1nc(C)c2c(n1)OC(CBr)C2 (configuration not stated)	9	2
O=C(CN1CCCC1c1nc2ccc(F)cc2[nH]1)N1CCOCC1 (configuration not stated)	-1	-4
CCOc1ccccc1CN1CCN(Cc2cnn(-c3ccc(C)cc3)c2)CC1CCO (configuration not stated)	-13	-15
Cc1cnc(N2CCCC(c3cc(=O)[nH]cn3)C2)nc1N(C)C (configuration not stated)	2&4	5&2
CCOC(=O)c1c(NC(=O)c2ccco2)c(-c2ccc3c(c2)OCO3)cn1C	1	-1
O=C1C2C(C(=O)N1/N=C\c1cc3c(cc1[N+](=O)[O-])OCO3)C1C=CC2C12CC2 (configuration not stated)	10	5
CC(=O)N1CCN(c2cc(-c3ccccc3)nc(SCc3cccc(C(=O)O)c3)n2)CC1	14	15
O=C(COCc1ccccc1)Nc1cccc(-c2cccc(-c3ccc(F)cc3F)n2)c1	4	1
CC(c1ccccc1)n1c(SCC(=O)O)nnc1C1CCOCC1 (configuration not stated)	8	7
CCN(CC(=O)Nc1cc(C(C)(C)C)nn1-c1ccc(Cl)c(Cl)c1)S(=O)(=O)c1ccc([N+](=O)[O-])cc1	-5	1
Cc1ccc(/C=C/CC(=O)Nc2sccc2S(C)(=O)=O)cc1	7&-1	4&-2
CN(CC(=O)O)C(=O)CCc1ncc(-c2ccc(F)cc2F)o1	9	8
COc1cccc(-n2c(-c3ccccc3)cc(C(=O)N3CCN(C(=O)COCc4ccccc4)CC3)c2C)c1	-3	2
COc1cc(OC)cc(C(=O)N2CCN(c3ccc(F)cc3)C(=O)C2C)c1 (configuration not stated)	1	1
Cc1cc(C)n(C(=O)c2c([N+](=O)[O-])cnn2C)n1	-2	-5
O=C(NNC(=O)c1cc(=O)c2ccccc2o1)c1ccc(=O)n(Cc2ccc(Cl)cc2)c1	-12	-20
CN(C)c1ccc(NC(=O)c2cc(C(F)(F)F)cc(C(F)(F)F)c2)cc1C(=O)NCCc1ccccc1	22	42
CNS(=O)(=O)c1ccc(C(=O)N(C)c2ccccc2)o1	2	-1
CC(C)N1CCC(=NNC(=O)c2ccc(C(C)(C)C)cc2)CC1	-4	-13
CCC1CN(C(=O)C2CCCCN2C(=O)c2ccccc2)CCO1 (configuration not stated)	8	6
O=C(CCN1CCCCO1)N1CCCC(N2CCN(c3ccccc3)CC2)C1 (configuration not stated)	15	12
CCN(c1ccccc1)S(=O)(=O)c1cc(C(=O)O)cc(C)c1C	6	3
CCc1nnc2n1N(C(C)=O)C(c1cccc([N+](=O)[O-])c1)=C(C(C)=O)S2	4	2
C=CCNC(=O)N1CCN(C(=O)CC2CCCCC2)CC1	-6	-6
COc1cccc(C(=O)Nc2c(C)nc3cc(C)ccn3c2=O)c1	4	0
Cc1cc(NC(=O)C23CC4CC(CC(C4)C2)C3)n(-c2nc3c(c(=O)[nH]2)CCC3)n1	7	0
COCCOC(=NCCN1CCCC1)NC(=O)c1ccc(OC)cc1	0	10
O=C1Nc2ccc(Br)cc2C1O (configuration not stated)	4	2
CC(NCCC(=O)Nc1ccc(C(N)=O)cc1)C1=CCCCC1 (configuration not stated)	18	8
COC(=O)c1ccc2c(c1)C1CC(C)(O2)N(c2ccc(C)c(C)c2)C(=O)N1 (configuration not stated)	-2	3
O=C(NCCNc1nc(-c2ccccc2Cl)nc2ccccc12)c1ccccc1Cl	-15	-7
O=C(Nc1cccnc1)c1nn2c(C(F)(F)F)cc(-c3ccco3)nc2c1Cl	0	2
Oc1ccc(Cl)cc1Sc1cc(Cl)ccc1O	-17	-26
CC(NCc1ccc2c(c1)nnn2C)c1ccc(F)cc1F (configuration not stated)	1	-2
COc1ccc(-n2nnc3c(N4CCN(C(=O)C(C)(C)C)CC4)ncnc32)cc1	-4	-4
COc1cc(N(C)Cc2csc(C(C)C)n2)ncn1	-1	6
CC(C)(C)CC(=O)N1CCCC1C(=O)N1CCOC(c2ccc(F)cc2)C1 (configuration not stated)	7	5
COc1ccc(S(=O)(=O)NC(=O)C2(C)CCN2C(=O)c2c(C)noc2C)cc1 (configuration not stated)	-1	0
COc1ccccc1C1=NC(=Cc2cc(Cl)c3c(c2)OCCO3)C(=O)O1	11	8
Cc1ccc(C)c(OC(C)C(=O)Nc2c(C)nc3ccc(Cl)cn3c2=O)c1 (configuration not stated)	5	3
COC(=O)C(C)n1cnc2c(nnn2-c2ccc(F)cc2)c1=O (configuration not stated)	5	8
CC1=NC2=C(C(=O)CC(C)(C)C2)C(c2cccs2)C1C(=O)OCCOC(C)C (configuration not stated)	-4	-4
Cc1nnnn1-c1cc(N)ccc1C(=O)OC(C)C(=O)NCC(C)C (configuration not stated)	17	16
COc1ccc2c(c1)N(O)C(=O)CO2	2	-1
Cc1ccc2oc(-c3cc(NC(=O)c4cc(Br)ccc4Cl)ccc3O)nc2c1	10	12
Cc1nnc(C(C)N(C)CCCc2cc(-c3cccc(F)c3)n[nH]2)o1 (configuration not stated)	-10	-11

Carrying on.
SMILES	NPYLR7 agonist	NPYLR7 agonist max-min
COc1cccc(C(=O)N(CC(=O)N2c3ccccc3-n3cccc3C2c2cc(OC)ccc2OC)C(C)C)c1 (configuration not stated)	9	24
Cc1cc(C)cc(CSc2nnc(C)n2C)c1	4	2
CC1CCCN(C(=O)c2cc3c(=O)n4ccccc4nc3n2C)C1 (configuration not stated)	-2	-4
Cc1cnc(C(=O)N2CCN(Cc3ccc(-c4noc(-c5cccs5)n4)cc3)CC2)cn1	8	19
CCn1c(CC2CCN(C(=O)c3cccc4ncccc34)CC2)nn(C)c1=O	1	-3
N#Cc1ccc(N=Nc2c(-c3ccccc3)[nH]n(-c3ccc([N+](=O)[O-])cc3)c2=O)cc1	-5	-9
Cc1ccc(CSc2nc(=O)n3cc(C)ccc3n2)cc1	2	0
C=CCCC(=O)N1CCC(=O)N(C)C[C@H]2COc3ccc(C)cc3[C@H]21	1	8
c1ccc(CCC2CN(Cc3ccsc3)CCO2)cc1 (configuration not stated)	14	13
CC(C)Oc1ccc(S(=O)(=O)N2CCOCC2)cc1NC(=O)CSCc1ccc(F)cc1	9	8
COc1cc(Br)c(C2c3cc4c(cc3OC(=N)C2C#N)OCO4)cc1OC (configuration not stated)	3	1
O=C(CSc1ccc2nnc(CCNC(=O)c3ccccc3)n2n1)Nc1nc2ccccc2s1	-22	-22

Single values from the results shown.
Result of `N#Cc1ccc(N=Nc2c(-c3ccccc3)[nH]n(-c3ccc([N+](=O)[O-])cc3)c2=O)cc1` under NPYLR7 agonist: -5
Result of `O=C(CSc1ccc2nnc(CCNC(=O)c3ccccc3)n2n1)Nc1nc2ccccc2s1` under NPYLR7 agonist: -22
Result of `C=CCCC(=O)N1CCC(=O)N(C)C[C@H]2COc3ccc(C)cc3[C@H]21` under NPYLR7 agonist: 1
Result of `Cc1cnc(C(=O)N2CCN(Cc3ccc(-c4noc(-c5cccs5)n4)cc3)CC2)cn1` under NPYLR7 agonist: 8
Result of `CC(C)Oc1ccc(S(=O)(=O)N2CCOCC2)cc1NC(=O)CSCc1ccc(F)cc1` under NPYLR7 agonist max-min: 8
Result of `COc1cc(Br)c(C2c3cc4c(cc3OC(=N)C2C#N)OCO4)cc1OC` (configuration not stated) under NPYLR7 agonist: 3

Following part.
SMILES	NPYLR7 agonist	NPYLR7 agonist max-min
CCc1ccc(C2COCCN2C(=O)Nc2ccc(C#N)cc2)o1 (configuration not stated)	-2	-3
COc1cc(C2C(C(=O)c3cccs3)=C(O)C(=O)N2Cc2cccnc2)cc(OC)c1OC (configuration not stated)	0	-5
O=C(O)c1cc(-c2cccnc2)n(-c2ccccc2)n1	5	3
C=C=CSc1nnc2n(C)c(=O)c3c(n12)-c1ccccc1CC31CCCCC1	0	2
O=C(NCCc1nc2ccccc2[nH]1)OCc1nccn1Cc1ccccc1	-10	-15
